# Assay outcomes deposited in PubChem BioAssay by National Center for Advancing Translational Sciences (NCATS).
# GLA inh pH 4.5 = inhibitors of human alpha-galactosidase A at pH 4.5; activity change, negative = inhibition, % at 105 µM; P06280; purified enzyme, 4-MU-alpha-Gal fluorescence, pH 4.5; 230,000 tested, under 10 active; inconclusive = small, poorly fitted or top-dose-only inhibition, or a rising curve; inactive = flat fitted curve, though single readings scatter; no compound was filed as active;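 note: 0% = full activity with enzyme and -100% = basal without enzyme; dose as in the result columns while the protocol names 77 µM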
# Target sequence (P06280 whole entry, looked up): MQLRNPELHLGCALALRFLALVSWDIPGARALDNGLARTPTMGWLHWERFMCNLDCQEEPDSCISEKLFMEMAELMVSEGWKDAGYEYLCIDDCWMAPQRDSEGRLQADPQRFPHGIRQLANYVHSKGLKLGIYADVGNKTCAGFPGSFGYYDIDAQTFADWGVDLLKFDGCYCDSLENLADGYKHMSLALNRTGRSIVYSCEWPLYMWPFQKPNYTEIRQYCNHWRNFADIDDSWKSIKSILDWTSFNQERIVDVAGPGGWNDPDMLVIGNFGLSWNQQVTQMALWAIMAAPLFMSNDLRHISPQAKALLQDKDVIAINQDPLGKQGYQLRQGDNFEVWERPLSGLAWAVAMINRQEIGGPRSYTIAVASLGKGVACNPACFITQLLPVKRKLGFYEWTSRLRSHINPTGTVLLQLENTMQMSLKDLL
# Rango release inh = inhibition of RanGTP-driven Rango-importin beta dissociation. 340,000 compounds, 0.071% hits. Potency, µM (doses to about 46.1 µM), for inactives: top-dose activity change, negative = inhibition. Biochemical FRET Rango-importin beta, RanGTP-induced dissociation. O95149+P62826; active means falling FRET ratio curve, often poorly fitted, with flat reads before Ran was added; inconclusive means other falling curves, or compound fluorescence or quenching; inactive means flat or rising ratio curve;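 note: potency is the fitted concentration of half-maximal effect; % of control where 0% means no effect; nearly all actives have a fitted effect of over 45% in size; -100% = wells without RanGTP and RCC1; the record marks most hits as doubtful in a second field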
#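 Two FRET readings bracket the reaction: one 5 min after compound meets Rango–importin beta, another 45 min after RanGTP-RCC1 (0.6 uM Ran, 0.2 uM RCC1, 2 mM GTP) is added. Only the second defines inhibition.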
# miR-21 reporter = raises the signal of a miR-21 reporter | Potency, µM (doses to about 38.3 µM), inactives show at the top dose reporter change, positive = more light | 340,000 tested, under 10 active | HeLa miR-21 FLuc reporter, luciferase, 48 h; active = well fitted rising curve with a large enough effect; inconclusive = small, poorly fitted or top-dose-only effect; inactive = no such curve, though single readings can be large or run the other way;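 note: % of control where 0% means no effect; miR-21 action dims this reporter so a rising signal means less miR-21 action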
#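 Luminescence from a firefly luciferase reporter carrying a miR-21 binding site downstream, stably expressed under a CMV promoter in HeLa cells that make miR-21 endogenously, reports miRNA modulation after 48 h compound exposure up to approximately 40uM final.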
# Rango complex inh = Rango-importin beta binding inhibition; Potency, µM (doses to about 92.2 µM), inactives show at the top dose inhibition of complex formation; 340,000 compounds, 0.031% hits; Q14974; Rango CFP/YFP FRET sensor + importin beta, 45 min; active = rising FRET ratio curve, often small or poorly fitted; inconclusive = mostly compound fluorescence or quenching in the first reads; inactive = flat curves in all reads;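 note: potency is the fitted concentration of half-maximal effect; 0% = DMSO wells and 100% = buffer wells lacking importin beta; nearly all actives have a fitted effect of over 15% in size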
#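 FRET biosensor (snurportin 1 IBB flanked by EYFP and cerulean), 50 nM, with compound 5 min, then 0.125 microM importin beta in PBS, 1 mM DTT, 0.02% Tween-20, 0.1% BSA. CFP/YFP ratio read after 45 min at room temperature; pre-read flags interference.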
# Active calls of the source: *; ? = inconclusive; / = not tested or not shown; [ ] = dose if it differs, or a comment.
SMILES,GLA inh pH 4.5,Rango release inh,miR-21 reporter,Rango complex inh
Cc1cccc(OCc2nc(C#N)c(NCc3ccc4c(c3)OCO4)o2)c1,-4.9,7.7%,-30.4%,-2.6%
Cc1ccc(C)c(NC(=S)NCc2ccc3[nH]c4c(c3c2)CCCC4)c1,-3.5,-17.0%,9.6%,?
N=C1C(=O)OCC1c1ccccc1NC(=O)CN1CCOCC1 (centres undefined),-0.6,-15.0%,-6.5%,?
CCCCN(C)CCCNC(=O)c1cn(C)c2ccc(S(=O)(=O)N(C)C3CCCCC3)cc2c1=O,/,?,-4.9%,?
CCCNC(=O)CN1C(=O)NC(c2ccccc2)(c2ccccc2)C1=O,/,-23.8%,-1.3%,-0.5%
O=c1cc(-c2ccccc2)[nH]n1-c1nc2ccccc2[nH]1,-10.0,-23.0%,-15.2%,-6.5%
CCOc1ccc(Nc2nc3c(c(=O)[nH]2)CCC3)cc1,0.6,25.2%,-7.1%,2.2%
C=CCOc1ccc(C=Nc2ccc(Cl)cc2)c(O)c1,-4.5,-13.5%,-12.6%,1.5%
CC1CN(C(=O)COC(=O)/C=C/c2ccc(C(F)(F)F)cc2)CC(C)O1 (centres undefined),/,-5.7%,/,-0.8%
Cc1ccc(-c2noc(C3CCCN(C(=O)c4cccc(F)c4)C3)n2)cc1 (centres undefined),/,-10.1%,-8.5%,-0.1%
CC(C)(C)NC(=O)c1nc2nc(-c3ccccc3)cc(C(F)(F)F)n2n1,-4.3,?,-7.0%,2.2%
Cc1cccc(N2CN(Cc3ccco3)CNC2=S)c1C,2.1,1.1%,-4.0%,1.2%
O=C(Nc1nnc(C2=COCCO2)o1)c1cccc(F)c1,/,-9.0%,-12.4%,0.2%
CC(C)Cn1c(=O)c2c(nc3n2CCCN3CCc2ccccc2)n(C)c1=O,7.3,1.5%,22.8%,0.5%
Brc1cccc(-c2nnc3sc(CN4CCC5(CC4)OCCO5)cn23)c1,8.5,0.3%,1.9%,-0.5%
CCOc1ccc(S(=O)(=O)N2CCC(C(=O)NCc3ccccc3CN3CCCC3)CC2)cc1,/,21.7%,/,-1.6%
Cc1nn(CC(=O)NC2C(=O)N3C(C(=O)O)=C(CSc4nnnn4C)CSC23)cc1Br (centres undefined),2.9,1.8%,0.3%,-0.2%
Cc1cc(C(=O)CN2C(=O)c3cccc(N)c3C2=O)c(C)n1Cc1cccs1,-0.6,?,-45.6%,?
O=C(CCc1nc2ccccc2c(=O)[nH]1)Nc1ccc(F)cc1,2.4,0.4%,-20.2%,0.5%
CC1=C(C(=O)Nc2ccccc2)C(c2ccc(C(C)C)cc2)N2C(=O)CSC2=N1 (centres undefined),-4.3,4.2%,-1.2%,-1.6%
N#CC1(NC(=O)CN2c3cccc4cccc(c34)S2(=O)=O)CCCCC1,/,16.8%,/,-0.7%
CC(C)CNC(=S)NC(=O)c1ccc(Cl)cc1,-4.6,-2.6%,-72.5%,-2.3%
C=CCn1c(SCC(=O)NC(=O)NC2CCCC2)nnc1C1CCCCC1,7.0,-7.9%,-0.2%,-4.5%
CC(C)Cc1nnc(NC(=O)CCC(=O)N2CCN(c3ccccc3F)CC2)s1,/,8.5%,-0.8%,1.6%
CCCS(=O)(=O)c1c(S(=O)(=O)CCC)c2ccc(C(N)=O)cn2c1C(=O)c1ccc(F)cc1,1.5,11.8%,-0.4%,0.0%

# Later entries.
SMILES,GLA inh pH 4.5,Rango release inh,miR-21 reporter,Rango complex inh
Cc1noc(C)c1C(=O)Nc1ccc(F)cc1F,2.3,-5.8%,-0.8%,1.7%
Cc1cc(=O)oc2c(C)c(OCC(=O)NCCc3ccc(S(N)(=O)=O)cc3)ccc12,/,10.4%,-1.2%,0.5%
O=C(NCc1nc2ccccc2[nH]1)C1=C[C@H](C2CCCCC2)C[C@H](OCc2ccc(CO)cc2)O1,0.8,-5.9%,-0.3%,-1.1%
COc1cccc(C2CC(c3ccc(Br)cc3)=NN2C(=O)c2ccncc2)c1OC (centres undefined),-13.6,-13.5%,0.5%,?
NC(=O)COC(=O)c1ccc(Cl)c(S(=O)(=O)N2CCCCCC2)c1,5.1,-19.9%,-3.5%,?
Clc1cccc(-c2ccc(/C=N/n3cnnc3)o2)c1,-8.3,-11.0%,-1.8%,4.5%
CC(C(=O)NCCSCc1cccc(Cl)c1)N(c1ccccc1)S(C)(=O)=O (centres undefined),/,4.8%,?,0.2%
OC[C@H]1OC(O)[C@@H](O)[C@@H](O)[C@@H]1O (some centres undefined),/,-10.5%,/,-0.8%
CN1CCC(=NNC(=O)C(=O)NCc2ccccc2)CC1,-0.3,6.5%,-4.4%,-2.6%
CCN(CC)C(=O)Cc1c(O)c2ccccc2[nH]c1=O,-13.8,-11.8%,3.4%,0.1%
CC1(C)C(N(O)C(=O)Nc2ccccc2)N(c2cccc(Cl)c2)C(=O)N1O (centres undefined),-6.4,-12.9%,-0.1%,?
FC(F)(F)c1ccc(Oc2ccc3ccccc3c2Br)nc1,-5.5,1.5%,0.0%,?
COc1ccc(C2=CC(=O)CCC2)cc1,/,10.9%,/,-0.6%
CCOCc1nnc(NC(=O)COc2ccc3c(c2)OCO3)s1,/,6.4%,-8.3%,?
O=C(NNC(=O)c1ccncc1)Nc1ccc(Cl)cc1,/,13.5%,/,-0.8%
COCCn1c(CN2CCC(Cc3ccccc3)CC2)nc2c1c(=O)n(C)c(=O)n2C,-1.8,4.5%,-0.4%,0.9%
CCCCOc1ccc(C(=O)NCC(=O)N2CCN(C(=O)c3ccco3)CC2)cc1,/,-4.2%,/,-0.5%
O=C(COC(=O)CNC(=O)c1ccccc1F)Nc1ccc2c(c1)OCO2,/,-3.0%,/,-2.3%
Cc1ccc(C)c(S(=O)(=O)N/N=C/c2cccnc2)c1,-9.1,0.6%,-2.3%,-0.7%
Cc1ccccc1N1CC(C(=O)Nc2ccc3c(c2)OCO3)CC1=O (centres undefined),/,-11.4%,-15.4%,0.8%
Cc1ccccc1CNC(=O)c1cc2ccccc2o1,/,12.9%,/,2.2%
Cc1ccc(-c2cc(-c3ccco3)c3c(N)c(C(=O)NN)oc3n2)cc1,-19.8,?,17.3%,?
Cc1ccc(C(O)(C(=O)NNS(=O)(=O)c2ccc(C)cc2)c2ccc(C)cc2)cc1,6.0,4.6%,-0.3%,3.7%
C=CCc1cc(OC)ccc1OCCN1CC(C)OC(C)C1 (centres undefined),/,-12.0%,0.6%,5.7%
COc1cccc(OC)c1C(=O)NC(=S)Nc1ccc2c(c1)C(=O)N(C)C2=O,9.7,-22.1%,-5.8%,-0.7%

# Complete entries from above. Order of values: GLA inh pH 4.5 | Rango release inh | miR-21 reporter | Rango complex inh
# CCOCc1nnc(NC(=O)COc2ccc3c(c2)OCO3)s1 is listed with / | 6.4% | -8.3% | ?
# Cc1ccc(C)c(S(=O)(=O)N/N=C/c2cccnc2)c1 is listed with -9.1 | 0.6% | -2.3% | -0.7%

# Next part.
SMILES,GLA inh pH 4.5,Rango release inh,miR-21 reporter,Rango complex inh
CCn1cc(C(=O)NCCOC)c(=O)c2ccc(C)nc21,-3.5,-6.0%,-2.2%,?
O=C(Nc1ccc(F)cc1)Nc1ccc(Cl)cn1,-2.2,-5.0%,-36.2%,-1.2%
COc1cccc(NC(=S)N(CCCN2CCOCC2)C(C)c2cc3ccccc3o2)c1 (centres undefined),-13.9,9.4%,-5.1%,-4.4%
Cc1noc2ncnc(Sc3ccccc3Cl)c12,0.9,4.9%,24.9%,4.2%
COc1ccccc1NC(=O)c1ccc(NS(=O)(=O)c2ccc(F)c(F)c2F)cc1,-1.7,14.0%,-9.6%,-0.2%
CCOC(=O)C1=NNC(C(=O)OCC)C1C(=O)OCC (centres undefined),/,-2.7%,/,1.2%
Cc1cc(C(=O)NC2CCC(O)CC2)c(C)o1 (centres undefined),/,-0.9%,/,-3.6%
Nc1nnnn1/N=C/c1cc(Cl)cc(Cl)c1O,/,?,0.4%,?
O=C(Cn1c(-c2cscn2)nc2ccccc21)Nc1ccc2ccccc2c1,-0.8,7.6%,1.8%,2.6%
COc1cccc(C2CC(=O)N3CN(c4cccc(Cl)c4C)CSC3=C2C#N)c1OC (centres undefined),0.2,-2.9%,1.3%,-1.1%
COc1cccc(-c2c(-c3cc(OC)cc(OC)c3)n(C)c3ccc(-c4ccc5[nH]ccc5c4)cc23)c1,/,1.3%,/,-4.9%
Cc1cc(C)cc(NC(=O)C2CCCN(c3nc(C)cc(C)n3)C2)c1 (centres undefined),0.8,2.0%,-0.1%,-4.4%
CC1(C)CC(=O)c2sc(NC(=O)C3COc4ccccc4O3)nc2C1 (centres undefined),-10.3,0.1%,-45.0%,-4.8%
Cc1oc2c(CN3CCOCC3)c(O)ccc2c(=O)c1-c1ccccc1,-1.8,0.0%,-4.6%,-1.5%
C=CCC1NS(=O)(=O)OC2CCCCC12 (centres undefined),/,-14.3%,-0.8%,0.3%
O=C(Cn1cc(C(F)(F)F)ccc1=O)Nc1ccc2c(c1)OCCO2,/,13.4%,/,-2.3%
COc1ccccc1-n1c(C)nc2cc(C(=O)NCCN3CCOCC3)ccc21,1.2[21.1 µM],47.8%,-2.1%,-0.5%
Cc1ccc(NC(=S)NC(=O)c2ccc(Br)o2)c(C)c1,7.9,-5.2%,-38.0%,-0.9%
CCOc1ccccc1CN1CCN(Cc2ccc(C)o2)C(CCO)C1 (centres undefined),-0.9,-3.0%,-1.4%,0.4%
CCN(CC)C(=O)CN(C#N)c1nc(Cl)nc(N(C)C)n1,-2.8,-1.9%,-3.4%,-3.8%
CCN(CC)C(=O)C(=O)N/N=C/c1ccc(F)cc1,-4.3,33.2%,0.2%,1.4%
CC(C)CCN1CCN(Cc2coc3ccccc3c2=O)CC1CCO (centres undefined),/,-0.9%,-4.0%,-5.4%
O=P(O)(CN1CCCCCC1)C1Cc2ccccc2C1,-0.8,/,0.3%,/
COc1ccc(NS(=O)(=O)c2c(C)cc(C)cc2C)cn1,/,-6.9%,8.6%,-6.1%
COc1cc(CN2CCNC(=O)C2CC(=O)NC2CCCCC2)cc(OC)c1 (centres undefined),/,-10.0%,0.6%,-3.4%

# (more compounds)
SMILES,GLA inh pH 4.5,Rango release inh,miR-21 reporter,Rango complex inh
NS(=O)(=O)c1ccc(CCNC(=O)c2ccncc2)cc1,/,-9.6%,-5.2%,?
COC(=O)C1=C(N)Oc2cc(C)[nH]c(=O)c2C1c1ccc(Cl)cc1 (centres undefined),-8.4,3.2%,7.6%,?
CC(C)(C)NC(=O)c1cccc(NC(=O)Cc2cccs2)c1,-3.6,27.9%,-11.0%,-3.7%
COc1ccc(N2CCN(C(=O)c3ccccc3NS(=O)(=O)c3ccc(C)cc3)CC2)cc1,/,-0.8%,-2.6%,-0.6%
NC(=O)NCCc1ccccc1,/,-4.9%,0.2%,3.0%
CC(=O)Nc1ccc(S(=O)(=O)N(C)CC(=O)N/N=C/c2ccncc2)cc1,/,7.7%,0.1%,-2.6%
COC(=O)c1c(NC(=O)C2CC(=O)NN2Cc2ccccc2)sc(C)c1C (centres undefined),-26.4,-19.2%,-6.7%,-0.2%
CC(=O)Oc1c(C)c(OC(C)=O)c2c(c1C(C)=O)OC1CC(=O)C(C(C)=O)=C(O)C21C (centres undefined),-1.3,0.9%,22.9%,-0.4%
CC1CN(C(=O)c2ccc(NS(=O)(=O)c3ccc(F)cc3)cc2)CC(C)O1 (centres undefined),/,-1.5%,-1.6%,0.0%
COc1c(F)cc2[nH]c3c(c2c1F)CCNC3=O,/,-7.7%,/,-0.5%
O=C(CCc1ccc(Oc2cc([N+](=O)[O-])cc([N+](=O)[O-])c2)cc1)N1CCCCCC1,-7.6,9.6%,3.3%,-3.5%
CC(C)(C)OC(=O)[C@H](Cc1ccccc1)NC(=O)c1[nH]cnc1C(=O)Nc1cccc(Cl)c1,0.7,1.1%,14.4%,4.4%
CCOc1ccc(CN(C)CC(=O)Nc2ccc(N3CCOCC3)cc2)cc1OC,-2.6,-1.8%,-8.7%,0.2%
O=C(NC(=S)Nc1cc(S(=O)(=O)N2CCOCC2)ccc1N1CCOCC1)c1ccco1,9.9,2.7%,-4.5%,-3.8%
Cc1cc(-c2ccccc2)nc(N(C)NC(=O)C2CC2)c1S(C)(=O)=O,9.0,-0.1%,-1.2%,0.5%
COc1ccc(NC(=O)c2coc3ccccc23)cc1OC,1.1,4.8%,-70.7%,-2.5%

# The list is partial (hit frequency here may not be typical).
